GIV-Gai inh: blocks GIV peptide binding to rat Galpha-i3 | P08753 | Galpha-i3/FITC-GIV peptide fluorescence polarization, 90 min; active compounds read low; scaled: aluminum fluoride 0%, vehicle 100% | percent of control (FP), % (no concentration beside the values) | 0.42% of 210,000 active | AID 1224905;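 active = replicate mean at 85% of control or lower, very high polarization wells dropped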;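 note: wells of about 15 µL received 100 nL stock; the first replicate is given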
Target sequence (P08753 whole entry, looked up): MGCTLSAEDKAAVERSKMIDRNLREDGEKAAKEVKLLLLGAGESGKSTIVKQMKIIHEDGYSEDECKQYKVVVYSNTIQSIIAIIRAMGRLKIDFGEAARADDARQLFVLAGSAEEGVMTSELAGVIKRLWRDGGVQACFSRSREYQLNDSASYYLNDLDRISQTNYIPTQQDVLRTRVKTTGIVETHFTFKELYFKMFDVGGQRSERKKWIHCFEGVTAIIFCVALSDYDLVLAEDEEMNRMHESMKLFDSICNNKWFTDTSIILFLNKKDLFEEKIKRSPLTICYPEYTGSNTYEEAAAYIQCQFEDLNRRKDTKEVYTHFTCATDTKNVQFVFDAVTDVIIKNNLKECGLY
Sa growth inh: S. aureus growth inhibition; AID 720641; 0.53% of 170,000 active; S. aureus RN4220 growth, OD600, 20 h, 42 °C; active compounds read low; relative growth, % (no concentration beside the values);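 active = growth at 42 °C up to 50% and 20 or more points under that at 30 °C, or under 10% at both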;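 note: 300 nL library stock went into each well; scaled to the means of positive and negative controls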
HCMV UL50-53 inh: inhibitors of HCMV UL50-UL53 nuclear egress complex interaction. HTRF UL50-UL53 interaction, normalized percent inhibition. inhibition, % (test concentration not listed). 0.15% of 190,000 active. AID 1918969;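 active = both replicates at 50% or more, plus weaker picks with an unusually low signal ratio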;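 note: stock transfer was 100 nL into about 20 µL; 0% = negative control wells and 100% = wells with untagged competitor protein; inactives centre near -12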
Sa growth inh second temp: second read-out of Sa growth inh, no call of its own (marks repeat the call); relative growth, %; measured here: growth at 30 °C;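 optical density after 20 h as mean of two plates; 100% = untreated growth and lower means inhibition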
* marks the source's active call; other numbers are inactive results; . = not tested or not shown; & = joins results of further samples.

Under each structure: GIV-Gai inh | Sa growth inh | Sa growth inh second temp | HCMV UL50-53 inh
COc1ccc(-c2cnc(C)o2)cc1S(=O)(=O)Nc1ccc(F)cc1F
  103.1 | 121.7 | 96.9 | .
CN1CCN(/N=C2/C=C(c3ccccc3)C(O)(c3ccccc3)C2)CC1 (stereo unspecified)
  . | 111.1 | 90.3 | -75.2
COc1ccc(-n2c(C)cc(C3N=C(N)Nc4nc5ccccc5n43)c2C)cc1 (stereo unspecified)
  . | 24.9 | 0.7 | -14.2
O=C(c1cc2ccccc2o1)c1cnc2ccccn12
  103.8 | 107.1 | 79.4 | -75.3
COc1ccc(NC(=O)c2ccc(CN3CCc4ccccc4C3)cc2)cc1OC
  99.3&98.4 | 93.5 | 86.0 | -11.0&-14.0
COc1ccc(NC(=O)CN2C(=O)COc3ccc(S(=O)(=O)N4CCOCC4)cc32)cc1
  106.6 | 112.2 | 85.7 | .
CCSC1=C(C#N)C2(CCN(C)CC2)C(C#N)C(=O)N1 (stereo unspecified)
  99.4 | 99.0 | 86.9 | -3.6
CS(=O)(=O)Nc1cccc(-c2nc3cccnc3s2)c1
  104.5 | 96.4 | 83.9 | -44.6
Cc1sc2nc(COC(=O)C3CCN(S(=O)(=O)c4cccs4)CC3)[nH]c(=O)c2c1C
  . | 77.8 | 98.6 | -25.9
Cc1ccc(-c2cc(-c3ccccc3)nc(=O)[nH]2)cc1
  107.6 | 102.0 | 106.8 | 0.0
CCOc1cc(C(Nc2cccnc2)c2ccc3cccnc3c2O)ccc1O (stereo unspecified)
  100.5 | 20.9 | 15.7 | -76.2
Cc1ccc(C(=O)N2CCc3ccccc32)cc1Br
  . | 104.0 | 88.9 | -16.5
COc1ccccc1OCCOc1ccc(-c2nc3sc4c(c3c(=O)[nH]2)CCCC4)cc1
  99.2 | 94.0 | 83.5 | .
Cc1cc(Br)ccc1NC(=O)C1CCCN(S(=O)(=O)c2cccc3nonc23)C1 (stereo unspecified)
  105.3 | 105.0 | 93.0 | -7.7
C=C(C)CN1CCN(c2cc(C)nc3c(-c4ccc(F)cc4)c(C(F)(F)F)nn23)CC1
  97.4 | . | . | -18.8
CCN(CC)S(=O)(=O)c1ccc(Cl)c(C(=O)Oc2ccc(C)c(C)c2)c1
  101.9 | 116.2 | 98.8 | .
CC(OC(=O)Cn1ccc(=O)[nH]c1=O)c1ccccc1Cl (stereo unspecified)
  . | 123.4 | 94.8 | 18.4
O=C(Cn1c(=O)cnc2ccccc21)N1CCCCC1
  101.9 | 83.1 | 97.3 | -71.2
COC(=O)c1ccc(OCC2c3cc(OC)c(OC)cc3CCN2C(=O)c2ccc(F)cc2)cc1 (stereo unspecified)
  102.8 | 107.4 | 84.3 | .
CCC(=O)NC(=S)Nc1cccc(NC(=O)c2ccco2)c1
  100.1 | 114.5 | 84.6 | -5.7
CCn1c(=O)c2sccc2n2c(CCCC(=O)NCCc3ccc(S(N)(=O)=O)cc3)nnc12
  104.8 | . | . | -8.5
COc1ccc(OC)c2c1cc1n2CC(C)(C(=O)NC2CCCC2)N(CCC(C)C)C1=O (stereo unspecified)
  106.6 | . | . | -10.8
O=C(c1cn(-c2ccccc2)nc1-c1ccc(Cl)cc1)N1CCc2ccccc2C1
  102.3 | . | . | -12.2
Cc1ccc(C)c(NC(=O)CS(=O)(=O)c2c[nH]c3ccccc23)c1
  103.4 | 104.6 | 80.9 | .
COc1ccc(C(=O)Nc2ccccc2C2(C)CC2)cc1
  . | 124.3 | 103.2 | -9.8
O=S1(=O)CCN(Cc2ccc(NS(=O)(=O)c3cccs3)cc2)CC1
  101.8 | 83.4 | 88.4 | -12.1
Cc1nc(CSc2nncs2)cs1
  . | 103.6 | 86.0 | -27.7
COC(=O)c1cc(-c2cccc(Br)c2)no1
  95.6 | 83.1 | 84.3 | -58.8
Cc1c(C(=O)OC2CCCCCC2)[nH]c2c1C(=O)CC(c1ccc(Cl)cc1)C2 (stereo unspecified)
  108.9 | 98.5 | 89.5 | 0.8
CCOc1ccc(NCc2n[nH]c(=S)n2-c2ccc(C)cc2)cc1
  99.8 | 90.6 | 102.0 | -11.0
O=C(Cn1cc(SCc2ccccc2)c2ccccc21)N1CCCCC1
  105.0 | 113.4 | 90.0 | .
C1CCCN(c2nc(N3CCCCCC3)nc(N3CCCCCC3)n2)CC1
  103.8 | 111.4 | 92.2 | .
COC(=O)CN1c2ccccc2NC2=C(C(=O)CC(C)(C)C2)C1c1ccco1 (stereo unspecified)
  110.8 | 74.1 | 92.4 | -4.1
O=C(O)C1CCCCC1C(=O)NCc1cn2ccccc2n1 (stereo unspecified)
  104.9 | 93.1 | 85.5 | -16.1
CON(C)c1nc(OCCNC(=O)OCc2ccc(Cl)cc2Cl)nc(N(C)C)n1
  102.9 | 102.3 | 88.9 | -34.1
COc1cccc(CNC(=O)C2CCN(Cc3cc4ccccc4n3Cc3ccc(C)cc3)CC2)c1
  104.9 | 129.5 | 89.9 | .
COC(=O)c1ccc(Cn2c(=O)c3cccn3c3cccnc32)cc1
  108.0 | . | . | -25.2
CCOC(=O)C1(CC)C(=O)OC(C(=O)NC2CCCCC2)C1C (stereo unspecified)
  106.6 | 115.5 | 99.5 | -11.2
C=CCn1c(NCc2ccccc2Cl)nc2ccccc21
  102.5 | . | . | 5.6
Cc1nc(-c2ccc(N3CCN(C(=O)Nc4ccccc4)CC3)cc2)no1
  105.3 | . | . | -19.9
O=c1c2cc(-c3ccc4c(c3)OCO4)nn2ccn1Cc1nc(-c2ccc(F)cc2)no1
  109.5 | . | . | -15.7
Cc1cc(C)c2c(CC(=O)N(Cc3ccc(N(C)C)cc3)Cc3ccco3)coc2c1
  104.5 | 93.1 | 47.1 | -9.2
CN(C(=O)NCc1noc2ccccc12)c1cccc(Cl)c1
  96.0 | 88.2 | 84.1 | .
COc1ccc(CNC(=O)c2cc3c(=O)[nH]c4ccccc4c3n2C)cc1
  99.6 | 123.5 | 98.7 | 3.4
O=C(O)c1ccc(CO)o1
  102.6 | 98.5 | 95.5 | -21.4
CC(=O)N1CCCc2cc(S(=O)(=O)N3CCCC3)ccc21
  108.0 | 107.9 | 90.0 | .
COc1cccc(-n2c(C)cc3c2CC(C)(C)CC3=O)c1
  102.6 | . | . | -9.3
C=CCN(CC=C)Cc1c(O)ccc2c(=O)c(-c3ccccc3Cl)coc12
  99.6 | 91.7 | 88.6 | -2.2
O=C(Nc1ccccc1-c1nc2ccccc2s1)c1ccccc1
  99.4 | 88.8 | 91.0 | .
O=C(Nc1nonc1OCCOc1nonc1NC(=O)c1ccccc1)c1ccccc1
  . | 104.8 | 82.4 | -7.2
COc1cccc(-n2c(=O)c3c4c(sc3n(Cc3ccc(C)cc3)c2=O)CCCC4)c1
  99.6 | 94.1 | 93.6 | -4.1
N#CCC(=O)Nc1ccccc1Oc1ccccc1
  . | 87.7 | 87.6 | -25.7
Cc1nc(C(F)(F)F)ccc1C(=O)Nc1ccc2ccccc2n1
  104.3 | 117.7 | 97.6 | -0.6
O=C1CCc2cc(S(=O)(=O)NCc3ccccc3)cc3c2N1CC3
  106.8 | 90.3 | 88.9 | .
COc1cccc(NC(=O)CCSc2ccc3ccccc3n2)c1
  108.7 | 82.0 | 89.3 | -7.8
Cc1ccc(NC(=O)Cn2c(=O)n(CCCCC(=O)NCCc3ccccc3)c(=O)c3ccccc32)c(C)c1
  100.8 | 115.0 | 90.7 | -0.3
COc1cc(NC(=O)C2COc3ccccc3O2)c(OC)cc1Cl (stereo unspecified)
  102.0 | . | . | -21.3
Cc1ccc(C(=O)COc2nc(C)nc3ccccc23)cc1
  . | 89.4 | 93.1 | -15.3
CC(C)(C)OC(=O)N1CC2C(C1)C2NC(=O)c1nsc(Cl)c1Cl (stereo unspecified)
  102.6 | 116.6 | 93.8 | -7.8
COc1ccc(-c2nn3c(-c4ccccc4)nnc3c3ccccc23)cc1
  102.0 | 65.7 | 84.3 | .

(listing goes on)
Compound,GIV-Gai inh,Sa growth inh,Sa growth inh second temp,HCMV UL50-53 inh
COc1cccc(CNC(=O)Cn2c(=O)cc(C(F)(F)F)c3c(C)nn(C)c32)c1OC,104.1,97.1,87.8,.
COc1cc(CN2CCOCC2)ccc1O,102.3,100.7,100.4,-3.9
Cc1ccc(NC(=O)NC2CCN(c3cc(C)nc4ncnn34)CC2)cc1,105.9,.,.,-11.0
Cc1ccccc1-c1nnn(C/C(N)=N/O)n1,104.3,102.6,87.3,-33.4
CCOC(=O)c1c(NC(=O)CSCC(=O)O)sc2c1CCCC2,105.6,90.5,72.6,-2.8
Cc1nn(CCCC(=O)NCC2CCCO2)c(=O)c2cc3sccc3n12 (stereo unspecified),103.1,101.2,89.0,-1.9
CCn1c(C)ccc(-c2noc(CCC(=O)Nc3ccc(Cl)cc3)n2)c1=O,103.8,.,.,-12.1
O=C1CS(=O)(=O)C2(C(=O)N(Cc3ccccc3Cl)c3ccccc32)N1c1ccc(F)cc1 (stereo unspecified),102.6,86.8,96.8,.
Cc1cccc(N2CCN(C(=O)c3cc4ccc5cccnc5c4[nH]3)CC2)c1C,102.3,77.2,83.2,.
COCCN1C(=O)c2c(NC(C)=O)c3cc(OC)ccc3n2CC1(C)C(=O)NC1CCCC1 (stereo unspecified),102.1,.,.,37.5
CCc1ccc(N2C(=O)CC(Sc3ccccc3N)C2=O)cc1 (stereo unspecified),109.3,103.3,96.7,-16.0
O=S(=O)(NC1CCCCC1)c1ccc(-c2cc(C(F)(F)F)on2)o1,109.7,.,.,-7.9
CCOc1ccc(CN2CCCC2c2ccc(Cl)cc2)cc1 (stereo unspecified),99.9,.,.,-30.4
COC(=O)c1ccc(-c2nn(C)c(=O)c3ccccc23)cc1,99.1,92.0,82.1,-49.8
O=C1CCC2(C(=O)OCc3nc4ccccc4s3)Sc3ccccc3N12 (stereo unspecified),.,83.7,93.5,-22.2
Cc1ccc(CNC(=O)Cn2cc(S(=O)(=O)Cc3ccccc3F)c3ccccc32)cc1,108.9,104.1,92.4,.
O=c1oc(-c2ccc(F)cc2)nn1CN1CCCC2CCCCC21 (stereo unspecified),.,104.9,86.7,-45.0
Cc1ccc(C)c(NCc2ccccc2CO)c1,.,104.5,92.5,2.1
COc1ccc(C2=CC(c3ccccc3F)n3ncc(C(=O)Nc4ccc(C)cc4)c3N2)cc1 (stereo unspecified),105.5,102.2,82.0,.
Oc1ccccc1-c1nc2ccccc2o1,.,110.2,75.2,-15.5

Pulled by structure from above, five records:
Compound,GIV-Gai inh,Sa growth inh,Sa growth inh second temp,HCMV UL50-53 inh
Cc1nn(CCCC(=O)NCC2CCCO2)c(=O)c2cc3sccc3n12 (stereo unspecified),103.1,101.2,89.0,-1.9
COc1cc(CN2CCOCC2)ccc1O,102.3,100.7,100.4,-3.9
CCn1c(C)ccc(-c2noc(CCC(=O)Nc3ccc(Cl)cc3)n2)c1=O,103.8,.,.,-12.1
Cc1ccc(CNC(=O)Cn2cc(S(=O)(=O)Cc3ccccc3F)c3ccccc32)cc1,108.9,104.1,92.4,.
O=c1oc(-c2ccc(F)cc2)nn1CN1CCCC2CCCCC21 (stereo unspecified),.,104.9,86.7,-45.0

Additional records follow:
Compound,GIV-Gai inh,Sa growth inh,Sa growth inh second temp,HCMV UL50-53 inh
CN(C)C(=S)SCC(=O)N1N=C(c2ccc(Cl)cc2)CC1c1ccco1 (stereo unspecified),.,95.0,97.6,0.9
CC(C)(C)c1cc2cccnc2[nH]1,101.7,.,.,-8.6
CCN(C(=O)Cc1nc(-c2ccc(OC)cc2)no1)c1ccccc1,99.2,90.3,84.2,-35.6
Cc1ccc2[nH]cc(CCNC(=O)c3ccc(NC(=O)c4nnc(COc5ccccc5)s4)cc3)c2c1,104.0,.,.,-11.0
CN(C)c1ccc(-c2nnc3sc(-c4ccc5ccccc5n4)nn23)cc1,107.5,.,.,-25.0
COc1ccc(-c2csc(N3CCCC3C(=O)OCc3ccccc3)n2)cc1 (stereo unspecified),.,79.2,92.2,-12.5
COc1cc(NC(=NCc2ccncc2)NC(=O)c2cccc(N(C)C)c2)cc(OC)c1,103.3,.,.,-3.9
O=c1c2cccnc2n(Cc2ccc(F)cc2)c(=O)n1Cc1ccc2c(c1)OCO2,97.5,111.1,77.1,-11.8
CC(=O)Nc1sc2c(c1C(=O)O)CCc1ccccc1-2,107.8,86.4,78.5,.
O=C(O)CN1CCN(C(c2ccccc2)c2ccccc2)CC1,101.7,99.6,82.5,-15.1
O=C(COc1ccc(Cl)cc1)Nc1nnc2n1CCS2,106.4,102.9,95.1,.
CC(C)CN1C(=O)N(c2ccccc2)C(=O)C1CC(=O)Nc1ccccc1 (stereo unspecified),105.9,105.5,98.5,0.2
Cc1ccc(NC(=O)N2CCC(n3cnc4cccnc43)CC2)cc1Cl,100.5,.,.,-1.8
CC1C(=O)OC2(c3ccc(Br)cc3)C(C)C(=O)OC12 (stereo unspecified),98.8,95.0,82.1,-22.6
CSc1ncc2c(=O)[nH]cnc2n1,107.1,87.8,87.1,-13.0
Clc1ccc(Nc2c(-c3ccccn3)nc3cnccn23)cc1,100.1,120.1,86.8,-9.2

3 entries out of the list above, arranged by the number in GIV-Gai inh, lowest first:
smiles | GIV-Gai inh | Sa growth inh second temp
Cc1ccc(NC(=O)N2CCC(n3cnc4cccnc43)CC2)cc1Cl | 100.5 | .
COc1cc(NC(=NCc2ccncc2)NC(=O)c2cccc(N(C)C)c2)cc(OC)c1 | 103.3 | .
CC(C)CN1C(=O)N(c2ccccc2)C(=O)C1CC(=O)Nc1ccccc1 (stereo unspecified) | 105.9 | 98.5

Compounds as they come. About 0.79% of those tested had a hit in this group.
